Mtb H37Rv – M. tuberculosis H37Rv growth inhibitors, H37Rv strain (AID 1626). M. tuberculosis H37Rv growth inhibition; higher % means a stronger effect. actives 0.95% (n = 220,000). one-dose inhibition, % at 10 µM; IC50 in µM for titrated hits;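 active = confirmed in a dose series; inconclusive = inhibition above 80% but not taken into the dose series; inactive = below 80% or under 30% at every dose of the series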;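 also: bacteria incubated seven days before Alamar blue readout; 0% = bacteria only wells and 100% = bacteria with antibiotic wells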
Arbovirus inh – blocks arbovirus infection; actives 0.37% (n = 200,000); arbovirus infection cell-based antiviral screen; inhibition, % at 10 µM;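 active = inhibition from about 30%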;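 also: bluetongue infection of BSR cells; cell survival read as ATP light after 72 h; 0% = infected wells without compound and 100% = uninfected wells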
YopH inh – YopH (Yersinia) phosphatase inhibition | inhibition, %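 (about 10 µM by stock and volumes)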 | actives 0.16% (n = 140,000) | fluorescence Ex485/Em525 | AID 898;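 active = inhibition of 50% or more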;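 also: controls were vehicle for no effect and minimum signal wells for full effect; inactives centre near -20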
Mtb betalactam – beta-lactam sensitization of Mtb H37Rv | M. tuberculosis H37Rv growth with meropenem, percent inhibition; hits of this screen are not shown here | inhibition, % at 25 µM | actives 0.27% (n = 330,000);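 active = about 74% or more and at least 40 points above the plate without the antibiotic, then above 30% in a dose series; inconclusive = first-round hits that could not be retested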;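 also: growth measured after seven days incubation then overnight dye step; 0% = bacteria only wells and 100% = bacteria with antibiotic; twin plates without the antibiotic show which effects depend on it; some results filed as inactive read as strong as hits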
RecA intein inh – inhibitors of M. tuberculosis RecA intein splicing | P9WHJ3 | cell-free RecA intein splicing, fluorescence | inhibition, %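 (about 9 µM by stock and volumes)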 | actives 0.75% (n = 290,000); in the data active = inhibition above about 30%; inconclusive = no clear call, values can overlap the other calls;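 also: 0% = vehicle wells and 100% = reference inhibitor control wells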
Target sequence (P9WHJ3 whole entry, looked up): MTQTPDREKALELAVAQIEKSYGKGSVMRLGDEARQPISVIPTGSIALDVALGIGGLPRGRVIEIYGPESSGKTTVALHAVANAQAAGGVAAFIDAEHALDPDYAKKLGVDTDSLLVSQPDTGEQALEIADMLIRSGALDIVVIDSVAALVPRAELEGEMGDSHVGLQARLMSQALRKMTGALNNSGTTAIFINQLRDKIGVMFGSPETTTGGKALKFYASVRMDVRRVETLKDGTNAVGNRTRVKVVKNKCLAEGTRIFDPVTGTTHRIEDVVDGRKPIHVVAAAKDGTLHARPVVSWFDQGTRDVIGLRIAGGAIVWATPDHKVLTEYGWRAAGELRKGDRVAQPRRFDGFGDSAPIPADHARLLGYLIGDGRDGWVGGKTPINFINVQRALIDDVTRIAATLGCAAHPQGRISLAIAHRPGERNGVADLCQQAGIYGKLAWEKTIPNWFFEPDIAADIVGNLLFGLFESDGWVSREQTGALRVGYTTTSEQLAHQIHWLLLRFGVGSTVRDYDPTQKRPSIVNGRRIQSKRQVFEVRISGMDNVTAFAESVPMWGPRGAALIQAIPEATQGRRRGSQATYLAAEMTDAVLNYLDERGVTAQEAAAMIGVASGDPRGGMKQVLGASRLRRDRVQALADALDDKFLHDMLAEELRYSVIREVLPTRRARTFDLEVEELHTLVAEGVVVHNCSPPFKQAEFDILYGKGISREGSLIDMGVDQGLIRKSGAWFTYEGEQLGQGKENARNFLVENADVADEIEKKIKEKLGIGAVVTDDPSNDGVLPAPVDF
The depositor's hits bear a star; u = inconclusive; x = not tested or not shown; & = joins results of further samples. An excerpt; count on the stated rates, not on these rows.

SMILES	Mtb H37Rv	Arbovirus inh	YopH inh	Mtb betalactam	RecA intein inh
O=C1C2(c3ccccc3)CN(CCCO)CC1(c1ccccc1)CN(CCCO)C2	-14.4%	-1.4	-23.0	1.4	0.0
CCn1c(SCc2c(F)cccc2Cl)nnc1-c1ccco1	-1.9%	-1.7	21.8	4.5	0.3
Cn1c(SCC(=O)O)nc2sc3c(c2c1=O)CCC3	x	x	x	-2.1	1.9
CCN(CC)CCNC(=O)c1ccc(NC(=O)c2ccc(F)cc2)cc1	-11.2%	-5.3	x	-2.7	-1.6
Cc1ccc(/C=N/Nc2ccc(C(=O)O)cc2)s1	-5.2%	-2.6	x	0.4	-4.7
CCOC(=O)CSc1cc(CS(=O)c2ccc(Cl)cc2)nc(-c2ccccc2)n1 (stereo unspecified)	15.8%	1.8	12.7	90.9	2.3
O=C1N=c2ccccc2=C1c1sc(Nc2cccc(O)c2)nc1O	x	x	x	1.0	-2.2
CC(C)(C)c1ccc(OC(=O)c2ccc3nsnc3c2)cc1	29.5%	11.3	-29.1	13.4	4.1
Cc1cccc(OCC(=O)Nc2ccc(S(=O)(=O)Nc3ccccn3)cc2)c1	-10.1%	3.6	x	6.9	-0.7
COC(=O)c1cn(NC(=O)Cn2nc([N+](=O)[O-])c(Cl)c2C)c(=O)c2ccccc12	1.1%	4.2	x	-2.5	1.5
C=CCN1C(=O)C(Cc2ccc(F)cc2)S/C1=N/N=C/c1cccs1 (stereo unspecified)	2.5%	1.4	-9.4	-15.1	-0.8
O=C(O)CSCC(=O)NCc1ccc(Cl)cc1Cl	-8.3%	2.6	x	4.8	0.3
Cc1ccnc(SCC(=O)c2cccc([N+](=O)[O-])c2)n1	0.2%	0.9	-9.2	-2.9	-1.2
O=C(NCCc1nnc2ccc(NCc3ccccc3Cl)nn12)c1ccccc1	6.2%	1.1	x	0.9	-0.7
COc1ccc(Cl)cc1NC(=O)CN(C)C(=O)c1ccc(COc2ccccc2)cc1	x	x	x	1.7	3.4
CCC(=O)Nc1ccc(S(=O)(=O)Nc2c(C)nc3nc[nH]n3c2=O)cc1	x	x	x	8.9	-0.3
O=c1nc2c(-c3cccc(Br)c3)n[nH]n2c2ccccc12	x	x	x	-2.3	0.8
CCc1ccc(-n2nc3cc(C)c(N)cc3n2)cc1	x	x	x	97.2	-48.6
Cc1ccccc1OCCn1c(=O)oc2ccccc21	-3.7%	1.8	4.9	8.9	1.5
CCOC(=O)C(O)(c1ccc(NC(=O)c2ccco2)c(OC)c1)C(F)(F)F (stereo unspecified)	-2.2%	13.3	-9.9	-5.9	2.8
CC(O)CSc1nc2c(c(=O)[nH]c(=O)n2C)n1Cc1ccccc1 (stereo unspecified)	x	x	x	-12.9	-3.1
COC(=O)c1cccc(C23CC4(C2)[C@H](CN(Cc2ccc(C(F)(F)F)cc2)[C@@H]4c2ccccc2)C3c2ccccc2)c1 (stereo partly specified)	-6.4%	x	x	-10.2	0.8
Cn1c(SCc2nc3ccccc3[nH]2)nnc1-c1ccccn1	12.7%	0.8	3.7	-13.3	-3.4
CCNC(=O)OCCC12CC3CC(CC(C3)C1)C2	8.4%	17.1	-24.4	3.5	x
CN(Cc1ccccc1)Cc1nc2c(c(=O)n(C)c(=O)n2C)n1CCCc1ccccc1	7.3%	-20.3	-15.0	2.6	1.6
Continuation:
SMILES	Mtb H37Rv	Arbovirus inh	YopH inh	Mtb betalactam	RecA intein inh
COc1ccc2cc(C(=O)N3CCN(c4cccc(C)c4C)CC3)[nH]c2c1	x	x	x	8.0	0.5
COc1ccnc(Oc2ccccc2)c1C(=O)N/C=N/OCc1ccccc1F	7.5%	-2.9	x	-4.0	-2.3
COc1ccc(CCNC(=S)Nc2ccc(OC)cc2)cc1	3.2%	-1.6	-29.7	-5.6	1.0
O=S(=O)(NCc1cccs1)c1ccc(Br)cc1	x	x	x	14.2	3.1
O=C(NCCSc1ccccc1)c1ccccc1F	x	x	x	-0.3	1.3
CC1=C(C(=O)OCC2CCCO2)C(c2ccc(C)cc2)C2=C(CCCC2=O)N1 (stereo unspecified)	0.9%	2.5	x	-1.1	-18.5
COC(=O)c1ccccc1NC(=S)NC(=O)COc1ccc(C(C)C)cc1	-3.1%	1.6	-25.5	4.5	11.6
O=C1c2ccccc2-c2nccnc21	1.7%	2.1	-42.9	-10.1	21.3
CC(C)c1ccc(NC(=O)c2ccc(NS(C)(=O)=O)cc2)cc1	3.9%	-22.9	x	-0.2	-2.0
N#CC(C#N)=C(N)CSc1cccc[n+]1[O-]	u	1.0	x	100.1	3.6
CCCCNC(=O)C(=O)N/N=C/c1ccc(OCc2ccccc2)cc1	-5.7%	-5.2	x	-2.8	-0.4
COc1ccc(C(=O)NCCCNC(=O)c2cccnc2)cc1OC	x	x	x	3.0	1.1
COC(=O)c1ccc(C(C(=O)NCc2ccccc2)N(Cc2cccs2)C(=O)c2cnccn2)cc1 (stereo unspecified)	-0.3%	20.4	-56.5	1.6	-0.5
Cc1cccc(NC(=O)C2CCCN(S(=O)(=O)c3cccc4nonc34)C2)c1 (stereo unspecified)	0.5%	4.3	x	-0.3	-1.6
COc1ccc(CN2CCN(C(=O)CCC(=O)Nc3nnc(C4CCCCC4)s3)CC2)cc1F	x	x	x	3.7	-0.6
Cc1nn(-c2ccccc2)c(Cl)c1C1C(C#N)=C(N)Oc2c1c(=O)oc1ccccc21 (stereo unspecified)	1.0%	7.7	-50.2	-13.5	0.8
Cc1cnc(CN(C)C(=O)C2CCC(=O)N(CCc3ccccc3)C2)[nH]1 (stereo unspecified)	x	x	x	3.8	-0.3
Cc1ccccc1NC(=O)CCc1c(C)nn(-c2ccc(N3CCCCC3)nn2)c1C	x	x	x	13.8	-1.1
CCC1(c2ccc(-c3ccccc3)cc2)C(=O)NC(=O)NC1=O	x	x	x	-5.5	0.4
COc1ccccc1NC(=O)c1ccc(-c2nn(C)c(=O)c3ccccc23)cc1	0.9%	-0.8	x	-6.5	-0.4
COc1ccc(NC(=O)c2cc3ccc(O)cc3o/c2=N\O)cc1	x	x	x	-11.2	-60.7
O=C(O)c1nnn(-c2ccc([N+](=O)[O-])cc2)c1-c1ccccc1	-9.4%	x	x	-9.0	-0.3
O=C(N/N=C/c1c(O)n(-c2ccccc2)c(=S)[nH]c1=O)c1ccccc1	-4.0%	x	x	6.1	-9.5
COc1ccc(NC(=O)C(=O)NCCN2CCN(C(=O)c3ccc(C(C)(C)C)cc3)CC2)cc1	x	x	x	-6.7	1.9
COc1cccc(S(=O)(=O)NCc2ccc(C(=O)N3CCN(c4ccccc4)CC3)cc2)c1	x	x	x	-11.7	3.6
Carrying on:
SMILES	Mtb H37Rv	Arbovirus inh	YopH inh	Mtb betalactam	RecA intein inh
COc1ccc(OC)c(-c2nc(CN3CCN(C(=O)c4ccco4)CC3)c(C)o2)c1	x	x	x	-0.9	2.0
COc1ccc(-c2cn3cccc(C)c3n2)cc1Br	7.0%	0.6	-25.5	8.3	-0.6
O=C(Cn1c(=O)sc2ccccc21)OC(CCl)CCl	5.7%	-8.2	-1.1	7.9	0.2
CCC1CCCCN1C(=O)Nc1cccc(NC(=O)N2CCCCC2CC)c1 (stereo unspecified)	6.9%	-5.0	-29.2	-7.2	2.7
COc1cccc(NC(=O)CN(C)C(=O)CNC(=O)c2ccc3ccccc3c2)c1	x	x	x	-5.6	1.8
O=S(=O)(NCC1CCCO1)c1ccc(Br)cc1 (stereo unspecified)	x	x	x	2.5	-0.1
COC/C=C/C1=CC2=CC(=O)C(C)(OC(=O)c3cccs3)C(=O)C2=CO1 (stereo unspecified)	-6.8%	x	x	-3.5	-0.9
COc1ccc(S(=O)(=O)N(CC(=O)NCc2cccnc2)c2ccc(F)cc2)cc1OC	1.7%	3.7	-18.2	0.3	2.5
CCC(C)Sc1nc2ccccc2c(=O)[nH]1 (stereo unspecified)	7.5%	-2.0	40.9	-10.6	3.3
O=C(c1cc(F)ccc1F)C1CCCN(C(=O)CCc2cnccn2)C1 (stereo unspecified)	-0.4%	5.6	x	2.6	-0.3
Cc1csc(NC(=O)Nc2cccc(Cl)c2)n1	-3.4%	6.8	-7.0	-4.6	6.3
Cc1cccc(C)c1NC(=O)CN(C)C(=O)c1ccc(-c2cccc(C(F)(F)F)c2)o1	x	x	x	-7.0	5.1
CC1CCCCN1C(=O)c1ccccc1OC1CCN(S(C)(=O)=O)CC1 (stereo unspecified)	2.3%	-3.5	x	-2.5	0.3
CCc1ccccc1N(CC(=O)NC(C)(C)CC)C(=O)CCC(=O)Nc1nccs1	x	x	x	-2.5	-0.6
C=CCNC(=S)NNC(=O)c1ccncc1	-8.2%	2.1	x	75.6	1.1
Cc1c(C(=O)N2CCC(C(N)=O)CC2)oc2ccc(Br)cc12	x	x	x	0.5	-0.9
COc1ccc(-c2[nH]c(-c3ccccc3)nc2SCC(=O)NC2CCCC2)cc1	55.5%	-15.9	-14.7	72.5	-3.0
COc1ccccc1CN1C(=O)CN(C2CCCCCC2)C(=O)C1c1ccc(F)cc1 (stereo unspecified)	2.7%	-17.7	-52.5	0.8	11.1
Cc1cc(C(=O)N/N=C/c2cccc([N+](=O)[O-])c2)c(C)o1	-1.8%	-7.8	-13.8	8.2	2.2
COc1ccc(NC(=O)CN(C)C(=O)c2c(-c3c(F)cccc3Cl)noc2C)cc1	x	x	x	-9.3	1.8
Cc1ccc(NC(=O)Cc2ccc3c(c2)CCCC3)cc1C	-0.7%	3.4	-9.2	8.0	3.2
O=C(Nn1cnc2ccccc2c1=O)c1ccc([N+](=O)[O-])cc1	5.2%	2.7	x	-4.8	-5.8
Cc1cc(C)n2cc(CSc3nc4ccccc4s3)nc2n1	2.3%	7.0	-3.8	-5.6	0.1
C/C(=N\NC(=O)c1nnn(-c2nonc2N)c1-c1ccccc1)c1ccco1	x	x	x	-4.1	-2.8
CC1COC(C)(CC(=O)NN2C(=O)c3ccccc3C2=O)O1 (stereo unspecified)	-7.8%	3.8	x	0.3	-8.3

Grouped by structure, the entries above containing a furan ring, fused or not (seven)
SMILES	Mtb H37Rv	Arbovirus inh	YopH inh	Mtb betalactam	RecA intein inh
CCn1c(SCc2c(F)cccc2Cl)nnc1-c1ccco1	-1.9%	-1.7	21.8	4.5	0.3
CCOC(=O)C(O)(c1ccc(NC(=O)c2ccco2)c(OC)c1)C(F)(F)F (stereo unspecified)	-2.2%	13.3	-9.9	-5.9	2.8
COc1ccc(OC)c(-c2nc(CN3CCN(C(=O)c4ccco4)CC3)c(C)o2)c1	x	x	x	-0.9	2.0
Cc1cccc(C)c1NC(=O)CN(C)C(=O)c1ccc(-c2cccc(C(F)(F)F)c2)o1	x	x	x	-7.0	5.1
Cc1c(C(=O)N2CCC(C(N)=O)CC2)oc2ccc(Br)cc12	x	x	x	0.5	-0.9
Cc1cc(C(=O)N/N=C/c2cccc([N+](=O)[O-])c2)c(C)o1	-1.8%	-7.8	-13.8	8.2	2.2
C/C(=N\NC(=O)c1nnn(-c2nonc2N)c1-c1ccccc1)c1ccco1	x	x	x	-4.1	-2.8

New compounds follow.
SMILES	Mtb H37Rv	Arbovirus inh	YopH inh	Mtb betalactam	RecA intein inh
N#CC(C(=O)Nc1ccc(Cl)cc1)=C1Nc2ccccc2N1	5.7%	-5.7	-33.2	-0.8	26.6
Cc1ccc[n+](-c2nc3ccccc3nc2C(=C=[N-])C#N)c1	0.4%&-7.7%	-4.0	11.3	-8.3&-1.8	-9.9&8.5
Cc1nn(CCC#N)c2c1P(=S)(N1CCCC1)OC(c1ccc(F)cc1)=N2 (stereo unspecified)	0.5%	-8.2	-35.3	12.2	-1.0
O=C(NCc1ccco1)/C(=C/c1ccccc1F)NC(=O)c1ccccc1	x	x	x	0.2	-1.0
COCCNC(=O)C(c1ccc(C)cc1)N(CCOC)C(=O)CCC(=O)Nc1nccs1 (stereo unspecified)	x	x	x	-0.2	-3.4
c1ccn(-c2ncnc3sc4c(c23)CCCC4)c1	1.2%	-0.3	-23.1	22.1	x
O=c1[nH]c(=S)[nH]c2c1C(c1cc([N+](=O)[O-])c(N3CCOCC3)cc1N1CCOCC1)O2 (stereo unspecified)	2.6%	7.1	x	-4.4	x
Fc1ccc(CNC(=S)NCc2cccc(Cl)c2)cc1	x	x	x	2.5	14.1
O=C(NCc1ccccn1)c1ccc(OC2CCN(Cc3ccccc3O)CC2)cc1	x	x	x	-11.6	1.3
CNC(=O)/C(C#N)=C/c1c(N2CCCCCC2)nc2ccccn2c1=O	x	x	x	-0.5	-0.1
Cc1ccc(OCC(=O)N(C)CCc2ccccn2)cc1	-5.3%	4.2	-44.1	-12.8	-0.4
COc1ccc(-n2c(C)cc(C=O)c2C)cc1Cl	-9.3%	-16.0	-7.8	10.1	1.5
O=C(/C=C/c1ccc(Cl)cc1)N1CCN(c2ccccc2[N+](=O)[O-])CC1	5.2%	4.0	2.4	46.7	9.2
Cc1cc(NC(=O)CSc2ncc(CO)n2Cc2ccc(F)cc2)no1	x	x	x	-6.0	-1.1
O=C(Nc1ccon1)c1ccc(S(=O)(=O)N2CCCCCC2)cc1	-2.0%	1.2	-23.0	-8.0	0.2

High-throughput results deposited in PubChem BioAssay by several laboratories.
